From PubChem
HCMV UL50-53 inh – cytomegalovirus nuclear egress complex inhibition | HTRF UL50-UL53 interaction, normalized percent inhibition | inhibition, % (no concentration beside the values) | hit rate 0.15% among 190,000;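 active = both replicates at 50% or more, plus weaker picks with an unusually low signal ratio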;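 note: stock transfer was 100 nL into about 20 µL; 0% = negative control wells and 100% = wells with untagged competitor protein; inactives centre near -12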
Sa growth inh – blocks Staphylococcus aureus growth | S. aureus RN4220 growth, OD600, 20 h, 42 °C; hits give low values | relative growth, % (test concentration not listed) | hit rate 0.53% among 170,000;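 active = growth at 42 °C up to 50% and 20 or more points under that at 30 °C, or under 10% at both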;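 note: 300 nL library stock went into each well; scaled to the means of positive and negative controls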
GIV-Gai inh – inhibitors of GIV GBA-motif binding to rat Galpha-i3; hit rate 0.42% among 210,000; AID 1224905; percent of control (FP), % (test concentration not listed); Galpha-i3/FITC-GIV peptide fluorescence polarization, 90 min; hits give low values; scaled: aluminum fluoride 0%, vehicle 100%;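 active = replicate mean at 85% of control or lower, very high polarization wells dropped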;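 note: wells of about 15 µL received 100 nL stock; the first replicate is given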
Target sequence (P08753 whole entry, looked up): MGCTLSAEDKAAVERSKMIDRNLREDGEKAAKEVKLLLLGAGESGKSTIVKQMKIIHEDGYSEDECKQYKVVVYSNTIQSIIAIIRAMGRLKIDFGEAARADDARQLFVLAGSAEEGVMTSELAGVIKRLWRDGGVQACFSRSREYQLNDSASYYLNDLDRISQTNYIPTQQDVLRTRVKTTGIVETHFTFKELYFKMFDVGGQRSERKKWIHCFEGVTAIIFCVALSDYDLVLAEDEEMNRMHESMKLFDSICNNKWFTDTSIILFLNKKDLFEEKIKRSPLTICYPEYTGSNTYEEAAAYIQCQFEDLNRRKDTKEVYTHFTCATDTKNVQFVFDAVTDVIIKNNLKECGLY
Sa growth inh second temp – recorded beside Sa growth inh, whose call it bears; relative growth, %; measured here: growth at 30 °C;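 optical density after 20 h as mean of two plates; 100% = untreated growth and lower means inhibition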
The depositor's hits bear a star; nt = not tested or not shown; & = joins results of further samples.

SMILES | HCMV UL50-53 inh | Sa growth inh | Sa growth inh second temp | GIV-Gai inh
COc1ccc(NC(=O)C2CCCCC2)cc1OC1CCCC1 | -17 | 107 | 87 | 106
CCOC(=O)c1sc(=S)n(-c2ccc3c(c2)OCO3)c1N | -2 | 90 | 86 | 98
COC(=O)c1c(NC(NC(C)=O)(C(F)(F)F)C(F)(F)F)sc2c1CCN(C)C2 | 0 | 106 | 86 | nt
O=C1c2ccccc2C(=O)N1/N=C/c1cn(-c2ccccc2)nc1-c1cc2ccccc2o1 | -17 | 88 | 93 | nt
O=C(COc1ccccc1)NCC(c1ccccc1)c1c[nH]c2ccccc12 (stereo unspecified) | -30 | nt | nt | 106
Cc1cc(C)c(-n2c(O)c(C=Nc3cccc(O)c3)c(=O)[nH]c2=O)c(C)c1 | nt | 85 | 90 | 300
COc1ccc(C2SCC(=O)N2C)cc1 (stereo unspecified) | -11 | 101 | 90 | 102
Cc1cccc(C)c1N1CCc2cn[nH]c21 | 8 | 75 | 89 | nt
COc1ccc(-c2onc(C)c2C)cc1S(=O)(=O)NCC1CCN(Cc2ccccc2F)CC1 | nt | 80 | 83 | 100
CC1=C(C(=O)OC2CCCC2)C(c2ccc(Cl)cc2)CC(=O)N1 (stereo unspecified) | -4 | 107 | 90 | 105
O=C(NCc1ccco1)c1ccc(Cn2c(SCc3ccc(F)cc3)nc3cccnc32)cc1 | nt | 94 | 103 | 99
CC1CCc2c(sc3nc(SCC(=O)Nc4c[nH]c(=O)[nH]c4=O)[nH]c(=O)c23)C1 (stereo unspecified) | -45 | 114 | 77 | 100
COC(=O)c1ccc(-n2c(C)cc(C(=O)CSc3nnc4ccccn34)c2C)cc1 | 1 | nt | nt | 107
O=C(Cc1ccc(Cl)cc1)Nc1ccc2c(c1)NC(=O)CO2 | 4 | nt | nt | 104
Cc1ccccc1NC(=O)Cc1nc(CSc2nnnn2C)cs1 | -3 | 105 | 104 | nt
Cc1ccc(NC(=O)Oc2ccc(F)cc2Cl)cc1Cl | nt | 103 | 105 | 106
CCN(CC)C(=O)Cn1cc(SCC(=O)N2CCCCC2)c2ccccc21 | nt | 89 | 85 | 101
O=C(C1COc2ccccc2O1)N1CCc2ccccc2C1 (stereo unspecified) | -3 | 113 | 86 | nt
CCN(Cc1ccccc1)C(=O)c1nc(-c2cccc(F)c2)n2c1CCCCC2 | nt | 96 | 111 | 105
COC(=O)c1c(NC(=O)C(C)Oc2ccccc2)sc2c1-c1ccccc1CC2 (stereo unspecified) | nt | 82 | 83 | 102
COC(=O)C1=NC=CN2CCS(=O)(=O)N=C12 | -45 | 94 | 96 | nt
O=C(Nc1cccc(N2CCCS2(=O)=O)c1)c1cccc(Br)c1 | 17 | nt | nt | 107
COC(=O)c1ccc(CN2CCCC(c3nc4ccccc4[nH]3)C2)o1 (stereo unspecified) | -42 | 88 | 84 | 103
CCC(C)NC(=O)C1c2ccccc2C(=O)N2CCc3ccccc3C12 (stereo unspecified) | nt | 115 | 86 | 100
OC1(c2ccc(-c3ccccc3)cc2)COc2ccccc2O1 (stereo unspecified) | -1 | 91 | 57 | nt

The closing 4 records of the part before come first, to join the parts.
SMILES | HCMV UL50-53 inh | Sa growth inh | Sa growth inh second temp | GIV-Gai inh
O=C(Nc1cccc(N2CCCS2(=O)=O)c1)c1cccc(Br)c1 | 17 | nt | nt | 107
COC(=O)c1ccc(CN2CCCC(c3nc4ccccc4[nH]3)C2)o1 (stereo unspecified) | -42 | 88 | 84 | 103
CCC(C)NC(=O)C1c2ccccc2C(=O)N2CCc3ccccc3C12 (stereo unspecified) | nt | 115 | 86 | 100
OC1(c2ccc(-c3ccccc3)cc2)COc2ccccc2O1 (stereo unspecified) | -1 | 91 | 57 | nt
CN(C)c1ccc(C(N2CCOCC2)P(=O)(c2ccccc2)c2ccccc2)cc1 (stereo unspecified) | -7 | 94 | 88 | nt
COc1ccccc1NC(=O)C1CCN(S(=O)(=O)c2ccc3c(c2)oc(=O)n3C)CC1 | -20 | 102 | 96 | 104
CCOCCCNC(=O)c1nn(C)c2c1CCc1sccc1-2 | -11 | nt | nt | 98
O=C(CSc1ncccn1)N1CCN(C(=O)c2ccco2)CC1 | 10 | 109 | 98 | nt
CCSC(=S)NC1CCS(=O)(=O)C1 (stereo unspecified) | nt | 104 | 71 | 104
COc1cccc(NC(=O)N2C3CCC2CC(O)(c2cccnc2)C3)c1 (stereo unspecified) | -22 | 93 | 83 | 102
Cc1nc(SCc2nnc(-c3ccccc3)o2)c(C(N)=O)c(C)c1C | -2 | 88 | 84 | nt
Cc1ccc(C(=O)NC2CC2)cc1N1CCCC1=O | nt | 108 | 84 | 102
NC(=O)CSc1nc2c(sc3ccccc32)c(=O)n1-c1ccccc1 | nt | 114 | 95 | 100
Cc1cccc(NC(=O)NCc2c(C)nn(C)c2C)c1 | -30 | nt | nt | 103
CCC(C#CCN1CCOCC1)OC(C)=O (stereo unspecified) | -3 | 115 | 91 | nt
COc1ccc(-c2noc(CN(C(=O)C(C)(C)C)C(C)C)n2)cc1 | -4 | 97 | 100 | 108
Cc1ccc(SCC(=O)N2CC(=O)Nc3ccccc32)cc1 | 8 | 98 | 103 | 111
COc1cccc(C(=O)CCN2CCC(c3ccccc3)C2)c1 (stereo unspecified) | nt | 69 | 80 | 99
CCOC(=O)Cn1c(=O)n(-c2ccccc2OC)c2nc(-c3ccc(C(C)C)cc3)nc(C(N)=O)c21 | nt | 100 | 74 | 99
COc1ccc(NC(=O)Cn2c(=O)oc3cc(S(=O)(=O)NC(C)C)ccc32)cc1OC | nt | 108 | 98 | 106
CCOC(=O)C1(c2ccccc2)NC(c2ccc(O)c(OC)c2)C2C(=O)N(C)C(=O)C21 (stereo unspecified) | -12 | 122 | 81 | 104
[O-][n+]1onc2cc(Cl)ccc21 | 0 | 129 | 72 | 93
Cc1ccc(NC(=O)Cn2nc(C(N)=O)c3ccccc3c2=O)cc1 | 16 | 94 | 98 | nt
COc1ccc(C2C(C#N)=C(N)N(c3ccccc3)C3=C2C(=O)CC(C)(C)C3)cc1OC (stereo unspecified) | -13 | 104 | 92 | 98
Cc1oc(-c2cc(Cl)ccc2Cl)cc1-c1nn2c(C)nnc2s1 | -20 | 89 | 83 | 103
CC(O)C(NC(=O)c1ccccc1)c1ccccc1 (stereo unspecified) | -10 | 90 | 83 | 97
CCOC(=O)c1ccc2c(c1)nc(C(C)O)n2CC(=O)Nc1ccc(N(CC)C(C)C)cc1 (stereo unspecified) | -6 | 86 | 91 | nt
O=C1NC(=Nc2ccccc2)SC1Cc1ccc(Cl)cc1 (stereo unspecified) | -15 | nt | nt | 103
Cn1nc(C(=O)N2CCCN(Cc3ccccc3Cl)C2)c2c1-c1ccccc1OC2 | nt | 100 | 69 | 98

Three entries out of the list, arranged by molar mass, high to low:
SMILES | HCMV UL50-53 inh | Sa growth inh | Sa growth inh second temp | GIV-Gai inh
CCOC(=O)c1ccc2c(c1)nc(C(C)O)n2CC(=O)Nc1ccc(N(CC)C(C)C)cc1 (stereo unspecified) | -6 | 86 | 91 | nt
COc1ccc(C2C(C#N)=C(N)N(c3ccccc3)C3=C2C(=O)CC(C)(C)C3)cc1OC (stereo unspecified) | -13 | 104 | 92 | 98
Cn1nc(C(=O)N2CCCN(Cc3ccccc3Cl)C2)c2c1-c1ccccc1OC2 | nt | 100 | 69 | 98

Following part
SMILES | HCMV UL50-53 inh | Sa growth inh | Sa growth inh second temp | GIV-Gai inh
COc1ccc(-c2nc3ccccc3c(=O)n2NC(=O)c2ccccc2Br)cc1OC | 8 | nt | nt | 107
COc1ccc(-c2noc(CN3CCC(C(=O)NCCC4=CCCCC4)CC3)n2)cc1OC | -30 | 92 | 83 | 106
O=C(O)CSCC(=O)N1CCN(c2ncccn2)CC1 | -14 | 93 | 93 | 105
CCn1c(C)nc2cc(C(=O)N=Nc3c(O)[nH]c4ccccc34)ccc21 | -65 | 100 | 95 | nt
CCn1c(CNC(=O)c2ccc(OC)cc2)nnc1SCC(=O)Nc1cccc(C)c1 | -1 | 100 | 96 | 102
COc1cc(NC(=O)c2c(-c3ccccc3Cl)noc2C)c2ncccc2c1 | -16&-12 | 85 | 83 | 108&104
O=C(Nc1ccc(S(=O)(=O)N2CCCCCC2)cc1)C1CC(=O)N(c2ccccc2)C1 (stereo unspecified) | 0 | 99 | 80 | 98
CCOC(=O)c1c(NC(=O)CSc2cn(CCNC(=O)c3ccccc3F)c3ccccc23)sc2c1CCCC2 | -4 | 76 | 93 | 102
O=C(NCC1CCCO1)c1ccc2c(c1)N(Cc1ccc(F)cc1)C(=O)/C(=C/c1ccccc1)S2 (stereo unspecified) | nt | 94 | 89 | 107
COc1ccc(C)cc1NC(=O)C1CCCN(S(=O)(=O)c2ccc3[nH]c(=O)ccc3c2)C1 (stereo unspecified) | nt | 100 | 86 | 106
Cc1cc[n+](CCOc2ccc(N)cc2)cc1 | -10 | 109 | 95 | nt
Cc1ccc(CN(C)C(=O)c2ccc(N3C(=O)c4ccccc4C3=O)cc2)o1 | -63 | 100 | 89 | nt
Cc1ccc(NC(=O)C(=O)NCC2(c3ccccc3)CCCC2)cc1C | -21 | 95 | 91 | 101
Cc1ccc(N2C(=O)c3cc4occc4n3CC2(C)C(=O)NC2CCC(C)CC2)c(C)c1 (stereo unspecified) | -15 | nt | nt | 105
Cc1nn(-c2ccccc2)c2[nH]c(=O)c(C#N)c(-c3cccs3)c12 | -45 | 125 | 51 | 106
O=S(=O)(c1cccs1)N1CCN(c2ccc(Cl)cc2)CC1 | -12 | 88 | 87 | 102
O=C1c2ccccc2C(=O)N1CSc1nnc(Cc2cccs2)n1CCc1ccccc1 | -21 | 95 | 99 | nt
O=C(Nc1cc(-c2cccc(Cl)c2)nn1-c1ccccc1)c1ccccc1F | nt | 83 | 90 | 102
CS(=O)(=O)c1ccc(Cl)c(NC(=O)c2ccc3c(=O)n4c(nc3c2)CCC4)c1 | -10 | 94 | 89 | nt
CC(CNC(=O)CC(C)(C)CC1=NS(=O)(=O)c2ccccc2N1)CSc1ccc(Cl)cc1 (stereo unspecified) | -34 | nt | nt | 103
CC(C)(C)c1ccc(C(=O)OCCN2CCCC2=O)cc1 | -1 | 101 | 93 | nt
COc1ccc(Cn2c(=O)[nH]c3cc(C(=O)N4CCN(c5cccc(Cl)c5)CC4)ccc3c2=O)cc1 | -13 | 99 | 87 | 102
Cn1c(CNCc2ccccc2)nc2ccccc21 | -7 | 97 | 78 | 103
COc1ccc(C2C=C(c3ccccc3)Nc3nc(NS(=O)(=O)c4ccc(Cl)cc4)nn32)cc1 (stereo unspecified) | -49 | 86 | 75 | 102
C/C(=N\N=C(N)N)c1ccc(-n2ccnc2)cc1 | -45 | 62 | 84 | nt
Continuation.
SMILES | HCMV UL50-53 inh | Sa growth inh | Sa growth inh second temp | GIV-Gai inh
O=S(=O)(Nc1ccccn1)c1ccc(Oc2ccccc2)cc1 | -22 | 90 | 85 | 107
COc1ccc(NC(=O)CC(=O)c2ccccc2)cc1 | 6 | 109 | 89 | nt
Cc1ccccc1C(=O)N(C)Cc1ccccc1 | -13 | 102 | 105 | 99
COc1ccc(CCN2C(=O)N(c3ccc(C)cc3)C(=O)C2CC(=O)Nc2ccc(OC)cc2)cc1 (stereo unspecified) | -30 | 88 | 92 | 102
CC1(C)Cc2ccccc2C(Nc2ccc(S(N)(=O)=O)cc2)=N1 | -22 | 87 | 79 | 103
O=C(C1CCN(c2ncnc3c2sc2ncccc23)CC1)N1CCOCC1 | -18 | nt | nt | 106
CN1CCN(S(=O)(=O)c2cccc(S(=O)(=O)c3ccc(Cl)c(Cl)c3)c2)CC1 | 4 | 98 | 81 | 97
N#CSc1ccc2nc(-c3c(F)cccc3F)oc(=O)c2c1 | 0 | 102 | 68 | 103
O=C(Nc1cccc(NC(=O)C2COc3ccccc3O2)c1)c1ccccc1 (stereo unspecified) | nt | 79 | 83 | 102
CC(=O)Nc1ccc(S(=O)(=O)Nc2nc(C)cc(-n3nc(C)cc3C)n2)cc1 | -7 | nt | nt | 102
CCOc1ccc(-n2c(=O)c3cc4c(=O)n(-c5ccc(OCC)cc5)c(=O)c4cc3c2=O)cc1 | 28 | 101 | 92 | 100
CN(C)CCCNc1oc(-c2ccc(F)cc2)nc1C#N | nt | 114 | 95 | 101
O=C1N=C(N2CCCC2)S/C1=C\c1ccccc1O | nt | 102 | 87 | 104
CN(C(=O)c1c[nH]c(=O)cc1C(F)(F)F)c1ccc(Cl)cc1 | 3 | 104 | 97 | 111
COc1ccc(-c2cc(C(F)(F)F)nc(S(C)(=O)=O)n2)cc1 | 5 | 28* | 58* | 101
O=C(NC1CCCC1)c1cncc(NS(=O)(=O)c2ccccc2)c1 | -15 | 106 | 99 | 112
CC(=O)N(Cc1cccnc1)c1nc2c(C)c(C)ccc2s1 | nt | 102 | 88 | 99
CC(C)CC(=O)Nc1ccc(S(=O)(=O)N2CCC(c3nc4ccccc4s3)CC2)cc1 | 6 | nt | nt | 103
Cc1c(C(=O)NC2CCCCC2)c(C)n2cn[nH]c(=O)c12 | nt | 79 | 87 | 104
COc1ccccc1-c1cc(C(=O)N2CCN(c3ccc(=O)n(-c4ccc(F)cc4)n3)CC2)[nH]n1 | -64 | nt | nt | 103
COc1ccc(C2=Nc3ccc(Cl)cc3NC(c3ccc(OC)cc3)=N2)cc1 | -6 | nt | nt | 97

Only GIV-Gai inh and HCMV UL50-53 inh (4 entries from above):
Structure	GIV-Gai inh	HCMV UL50-53 inh
O=C1N=C(N2CCCC2)S/C1=C\c1ccccc1O	104	nt
CN(C(=O)c1c[nH]c(=O)cc1C(F)(F)F)c1ccc(Cl)cc1	111	3
COc1ccc(-c2cc(C(F)(F)F)nc(S(C)(=O)=O)n2)cc1	101	5
O=C(NC1CCCC1)c1cncc(NS(=O)(=O)c2ccccc2)c1	112	-15

Not a hit list; overall some 0.85% were active at least once.
